# RanGTP-Impb inh: inhibitors of RanGTP-importin-beta interaction, primary screen, biochemical, FRET, CFP-Ran, YFP-importin-beta, homogeneous; cell-free CFP-Ran/YFP-importin-beta FRET ratio; inhibition, % (concentration not given with the values); hit rate 1.1% among 300,000; AID 2216;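 active means most replicates above 15%; inconclusive means exactly half above 15%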;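 further: 0% = DMSO wells and 100% = Ran loaded with GDP instead of GTP; wells of about 40 µL received 100 nL stock; the first replicate is given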
# Ecoli rRNA inh: inhibits bacterial ribosomal RNA function over humanized ribosomes; E. coli WT GFP vs humanized-ribosome RFP mutants, fluorescence, 24 h; stronger effect = lower value; DMSO median 0, no signal -100; GFP signal change (wild-type ribosome), % (concentration not given with the values); hit rate 1.6% among 350,000; AID 720706;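 active means significant combined selectivity score with lowered wild-type GFP, culture density cut under 30%, mutant RFP and density less affected; inactive means any of these conditions unmet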; further: one replicate is shown; some compounds called inactive have numbers as strong as hits
# Vif TR-FRET: HIV-1 Vif–A3G interaction blockers – biochemical, TR-FRET, GST-Vif 1-94, biotin-A3G peptide, dose response retest, primary screen (AID 1117319); TR-FRET GST-Vif / biotin-A3G peptide binding; higher % means a stronger effect; test concentration not given here; strong numbers were not always called active; hit rate 0.57% among 260,000; one-dose inhibition, %; IC50 in µM for titrated hits;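 active means above the screen mean plus three standard deviations and confirmed in dose response; inconclusive means results disagree or hit not tested in dose response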;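 further: Vif residues 1-94 fused to GST binding biotinylated APOBEC3G peptide 110-148; 0% = full assay without inhibitor and 100% = GST in place of GST-Vif; retest series ran down from 100 µM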
# Bfl-1 A1 inh: inhibitors of the anti-apoptotic protein A1, read as caspase activation. MEF A1-2A-BIM cells, Caspase-Glo 3/7 luminescence, 3 h; percent of clofoctol response, vehicle zero. caspase activation, % (no concentration beside the values). hit rate 0.066% among 330,000. AID 2462;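 active means over half of replicate activation scores above 10%, or exactly half above 10 with the replicate mean above 10; inconclusive means replicate mean below 10 yet half the replicates above 10; inactive means over half of replicates below 10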;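 further: wells of about 30 µL received 50 nL stock; many hits fall short of the cut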
# Calb FLC: C. albicans growth modulation with fluconazole | C. albicans CaCi-2 (fluconazole-resistant clinical isolate) + fluconazole, Alamar Blue growth, 48 h | growth inhibition, % (test concentration not listed) | hit rate 0.57% among 300,000;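 active means most replicates above 75%; inconclusive means exactly half above 75%; inactive means most below 75%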;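 further: all wells also contain fluconazole at 8 µg/ml as a sub-toxic cotreatment; 0% = median of DMSO wells and 100% = median of geldanamycin control wells; wells of about 8 µL received 7.5 nL stock; the first replicate is given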
# T cruzi inh: blocks replication of Trypanosoma cruzi; T. cruzi beta-gal in NIH3T3, luminescence, 90 h; inhibition, % (test concentration not listed); hit rate 1.4% among 300,000; AID 1885;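 active means mean inhibition across valid replicates above about 55%, limit read from the data; inconclusive means mean below that limit but half or more replicates reach it; inactive means mean below it, under half of replicates reach it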;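 further: signal also drops with host cell toxicity which is not excluded here; 0% = plate median of DMSO wells and 100% = zero luminescence signal; higher percent means less beta-gal luminescence so fewer parasites; stock transfer was 50 nL into about 50 µL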
# Beta cell apopt: beta cell apoptosis inhibition | INS-1E cytokine-induced death, ATP luminescence, 48 h; percent of positive-control rescue, neutral wells zero | protection from apoptosis, % (concentration not given with the values) | hit rate 0.8% among 300,000;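 active means all replicates at 75% or more, or half of them and the mean; inconclusive means half reach 75% but not the mean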;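 further: 0% = cytokine-treated negative control wells and 100% = positive control rescue; higher means more ATP so stronger rescue from cytokine killing; wells of about 40 µL received 100 nL stock; the first replicate is given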
# AF4-AF9 inh: MLL-AF4/AF9 protein interaction inhibition; P42568; AlphaScreen, biotin-AF4 peptide binding to FLAG-AF9; inhibition, % at 10 µM; hit rate 0.47% among 350,000; AID 651704;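 active means every replicate reaching a set inhibition limit, whatever the replicate mean, cut at about 25% in these data; inconclusive means mean inhibition reaches that limit but some replicates miss it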;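 further: 0% = plate neutral control median and 100% = total signal loss; the record names both 10 and 1 µM as test concentration; the first replicate is given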
# Target sequence (P42568 whole entry, looked up): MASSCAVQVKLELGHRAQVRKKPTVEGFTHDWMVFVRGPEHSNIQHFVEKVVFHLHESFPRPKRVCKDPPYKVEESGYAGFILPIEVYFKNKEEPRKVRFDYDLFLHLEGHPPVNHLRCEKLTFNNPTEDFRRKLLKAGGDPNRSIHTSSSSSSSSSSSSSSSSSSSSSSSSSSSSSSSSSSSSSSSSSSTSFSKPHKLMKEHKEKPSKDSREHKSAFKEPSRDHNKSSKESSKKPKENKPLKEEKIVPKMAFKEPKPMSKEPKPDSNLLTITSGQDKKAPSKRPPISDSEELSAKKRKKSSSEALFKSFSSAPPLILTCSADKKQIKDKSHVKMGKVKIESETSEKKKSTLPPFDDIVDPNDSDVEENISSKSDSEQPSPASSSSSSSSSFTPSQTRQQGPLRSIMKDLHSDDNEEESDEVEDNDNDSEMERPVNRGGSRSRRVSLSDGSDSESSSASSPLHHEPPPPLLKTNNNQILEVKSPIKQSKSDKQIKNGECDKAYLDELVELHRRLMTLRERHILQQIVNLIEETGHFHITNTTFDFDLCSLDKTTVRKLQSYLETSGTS
# Ecoli rRNA inh OD600: second read-out of Ecoli rRNA inh, no call of its own (marks repeat the call); OD600 change, %; measured here: OD600 growth;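 optical density of the mix in the first replicate; 0 = DMSO median and -100 = no signal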
# Ecoli rRNA inh RFP: also measured in Ecoli rRNA inh; calls as there; RFP signal change, %; measured here: RFP humanized mutant strains;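 first replicate; 0 = DMSO median and -100 = no signal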
# The depositor's hits bear a star; ? = inconclusive; nt = not tested or not shown. Not all compounds are listed, so the mix of outcomes need not match the whole.
SMILES,RanGTP-Impb inh,Ecoli rRNA inh,Ecoli rRNA inh OD600,Ecoli rRNA inh RFP,Vif TR-FRET,Bfl-1 A1 inh,Calb FLC,T cruzi inh,Beta cell apopt,AF4-AF9 inh
COc1ccccc1N(CC(=O)Nc1ccc(S(=O)(=O)N2CCCCC2)cc1)S(C)(=O)=O,1.2,nt,nt,nt,nt,0.9,3,-18,2,nt
Cc1c(NC(=O)Nc2ccccc2Cl)c(=O)n(-c2ccccc2)n1C,-3.1,10,10,-4.4,6%,-0.3,-3,7,-2,-3.3
CN(C)S(=O)(=O)c1cccc(NC(=O)CCNC(=O)Nc2ccccc2)c1,nt,3,9,1.5,nt,0.5,nt,nt,-2,-5.5
Cc1ccc(S(=O)(=O)N(CC(=O)NN=C2CCN(C)CC2)c2ccc(C(C)C)cc2)cc1,1.0,7,0,2.5,nt,0.4,-7,3,nt,-1.9
Cc1ccc(S(=O)(=O)N(C)C)cc1NC(=O)COC(=O)/C=C/c1ccc2ccccc2n1,2.0,4,4,-0.6,0%,1.3,9,2,-5,-1.4
CCNc1nc2c(c(=O)n(Cc3ccccc3)c(=O)n2C)n1Cc1ccccc1,6.6,nt,nt,nt,-1%,1.0,2,35,2,nt
COc1ccc(-c2csc(CCn3nc(C)cc3C)n2)cc1OC,4.4,2,1,-1.7,-2%,0.4,4,-2,-15,-18
Cc1occc1-c1nnc(SCC(=O)c2c(N)n(Cc3ccccc3)c(=O)n(C)c2=O)n1C,1.9,nt,nt,nt,-1%,-0.2,4,-4,-6,nt
CCOC(=O)N/N=C1\CCS(=O)(=O)c2ccc(Cl)cc21,14,7,9,-3.0,nt,0.2,-10,nt,-3,nt
Cc1ccc(OCC2Cn3c(nc4c3c(=O)n(C)c(=O)n4C)O2)cc1 (centres undefined),4.8,nt,nt,nt,3%,-1.4,-2,0,-6,nt
Cc1ccc(NC(=O)COC(=O)c2cc(Cl)ccc2[N+](=O)[O-])cc1,1.2,nt,nt,nt,0%,0.1,-2,-12,-2,0.9
Oc1ccc(O)c(/C(=N/Nc2ccccc2)c2ccccc2)c1,2.7,nt,nt,nt,nt,1.3,-6,3,-17,nt
Cn1c(=O)c2sccc2n2c(CCCC(=O)Nc3ccc(F)cc3F)nnc12,-1.9,7,5,-0.9,nt,1.4,-2,-8,2,-11
O=C(c1cc(-c2cccs2)on1)N1CCN(C(c2ccccc2)c2ccccc2)CC1,?,nt,nt,nt,1%,-2.3,-17,15,28,nt
c1ccc(-c2ccc3c(c2)NC(C2Nc4cc(-c5ccccc5)ccc4O2)O3)cc1 (centres undefined),-0.9,6,10,-1.5,0%,0.0,3,12,2,0.1
Cc1nc(C)c(C(=O)N/N=C/c2cn(C)c3ccccc23)s1,-3.4,nt,nt,nt,4%,-0.3,-3,-9,-4,nt
COC(=O)c1ccccc1NC(=O)c1cccnc1,?,-1,-10,-1.6,nt,0.6,3,-8,-4,2.5
COc1cc(C(=O)NCc2nnc(SCC(=O)Nc3nccs3)o2)cc(OC)c1OC,-2.6,-5,-2,-3.5,9%,0.6,-11,-22,-4,0.3
COc1ccnc(Oc2ccc(Cl)cc2)c1C#N,-2.5,12,4,4.0,?,0.0,-20,1,-2,0.1
Cc1ccc(S(=O)(=O)Oc2ccc(/C=C3\N=C(c4cccc(C)c4)OC3=O)cc2)cc1,3.3,nt,nt,nt,13%,-0.3,-4,10,-2,nt
CCCCNC(=O)COC(=O)c1cc2c(C)nn(-c3ccccc3)c2s1,-0.1,nt,nt,nt,21%,-0.5,-2,-7,-4,nt
O=Cc1ccc(N2CCCC2)o1,2.8,21,22,2.4,7%,0.8,-6,-2,-3,-2.1
CC1CC(C)(C)CC2(C1)NC(=O)N(CC(=O)NCC(c1ccco1)N1CCCCC1)C2=O (centres undefined),-0.3,nt,nt,nt,3%,0.5,-4,13,-3,nt
O=C(Nc1cccc(Cl)c1)NC1CC2CCC(C1)N2Cc1cccs1 (centres undefined),1.5,7,5,5.4,-4%,0.3,1,18,9,0.8
CCOC(=O)C(C(=O)OCC)C1CCS(=O)(=O)C1 (centres undefined),-4.4,nt,nt,nt,23%,-0.1,0,-3,-3,nt
Cc1nc(-c2cn[nH]c2)c2cc(C)oc2n1,-0.6,nt,nt,nt,-4%,0.2,0,-1,-6,nt
Cc1ccc2nc(SCC(=O)N3CCCC3)nc(=O)n2c1,-9.0,4,4,-1.0,-5%,0.4,0,-11,-1,0.1
Cc1cccc(NS(=O)(=O)c2ccc(C(=O)NCCCN3CCOCC3)cc2)c1C,-3.2,nt,nt,nt,nt,-0.1,1,11,-4,1.1
CC(=O)Oc1ccc(S(=O)(=O)c2ccc(OC(C)=O)cc2)cc1,nt,3,8,0.0,3%,-0.2,-11,nt,-3,-3.5
O=C(C1CC1)N1CCN=C1SCc1cccc(C(F)(F)F)c1,3.9,nt,nt,nt,-4%,-0.8,-4,-14,-9,nt
COc1ccc(CCNC(=O)CSc2ccc(-c3cccs3)nn2)cc1,-4.4,3,6,-8.2,nt,-0.7,37,-13,-5,-1.6
CCCNC(=O)c1c(N)n(-c2ccc(S(N)(=O)=O)cc2)c2nc3ccccc3nc12,12,nt,nt,nt,?,1.1,22,-23,-1,nt
COc1ccccc1NC(=O)C1=C(C)NC(=O)NC1c1ccc(C)cc1 (centres undefined),nt,-1,0,-1.4,-5%,-0.8,nt,nt,1,-6.1
Cn1nc(C(=O)NNC(=O)COc2ccccc2)c2ccccc2c1=O,1.9,13,11,1.6,-5%,0.5,-4,-3,-10,8.0
CCOC(=O)c1c(-c2ccc(OC)cc2)oc2cc(Br)c(O)cc12,-2.1,8,8,1.3,-5%,-0.2,-5,8,2,0.2
Cc1cc2nc(-c3ccc(SCc4ccccc4C#N)nc3)[nH]c2cc1C,-5.7,11,7,23,-3%,0.0,-26,?,5,-0.6
CC(C)C(C)NC(=O)CN1C(=O)NC2(CCCCCC2)C1=O (centres undefined),-3.0,9,12,-3.2,-1%,0.5,-6,5,2,-2.5
COc1ccc(CCn2c(N)c(C(=O)NCc3ccco3)c3nc4ccccc4nc32)cc1,58*,-6,-10,-1.4,6%,0.2,14,-23,5,-5.4
O=C(CCS(=O)(=O)c1ccc(Br)s1)NCc1cccs1,-2.9,nt,nt,nt,26%,0.3,-6,-6,-1,nt
CN(C)CCCN1C(=O)C(O)=C(C(=O)c2cc3ccccc3o2)C1c1ccccc1 (centres undefined),-1.7,nt,nt,nt,?,-0.2,-2,12,-2,nt
O=C(CCn1cccc1)NCc1ccc(Cl)cc1,6.6,nt,nt,nt,?,0.6,-20,-17,-3,nt
CCOC(=O)C1CCCN(C2=NC(=O)/C(=C/c3ccc(OC)cc3)S2)C1 (centres undefined),-3.6,-5,-3,-1.0,-8%,0.1,8,2,-7,-0.1
CC(CCc1ccccc1)NC(=O)CN(C)Cc1ccc(F)cc1 (centres undefined),-0.2,-4,-2,1.3,-7%,1.7,-2,12,0,1.3
Cc1ccccc1OCCN1CCCC1,-0.5,3,3,-1.5,nt,0.9,2,7,0,1.3
COc1c(C)cc(Br)cc1C(=O)Nc1ccc(C)cc1[N+](=O)[O-],-1.2,nt,nt,nt,14%,-0.3,-8,7,-1,nt
O=C(O)Cn1c2c(c3ccccc31)CSc1ccc(Cl)cc1-2,7.8,-17,-47,4.6,2%,0.6,6,-6,-1,2.3
CCO[C@H]1OC(C(N)=O)=C[C@@H](c2ccccc2)[C@@H]1CCCO,-3.3,7,19,2.9,nt,2.3,-1,-25,2,-6.1
O=C(CCS(=O)(=O)Cc1ccc(Cl)cc1)NCCc1ccccc1,1.8,8,-5,-1.4,3%,-0.4,-7,-10,-1,-9.1
CCCCN(CCCC)C(=O)CCS(=O)(=O)c1ccc2c(c1)n(C)c(=O)c(=O)n2C,-2.0,nt,nt,nt,2%,?,-5,5,5,nt
N#CC1=C(SCC(=O)c2ccc(Cl)cc2)NC2=C(C(=O)CCC2)C1c1ccco1 (centres undefined),-2.7,nt,nt,nt,13%,1.7,58,20,8,nt
Cn1cc(C(=O)NC2CCCCC2)c(=O)c2cc(S(=O)(=O)N3CCCC3)ccc21,-2.1,6,5,-1.3,4%,1.2,-7,7,3,nt
COc1ccccc1CNC(=O)CCN=C1NS(=O)(=O)c2ccccc21,nt,nt,nt,nt,-11%,-0.2,nt,nt,-2,2.4
COc1ccc([C@H]2CC(=O)C=C(c3ccc(Cl)c(C(F)(F)F)c3)C2)cc1,nt,-14,-48,-4.4,nt,-0.1,nt,nt,2,1.1
NC(=O)C1CCN(C(=O)CCSCc2ccccc2)CC1,-0.3,11,16,2.4,nt,0.8,-11,-8,-6,0.3
CCOC(=O)CN(C(=O)CNC(=O)c1ccco1)C(C(=O)NC1CCCCC1)c1cccc(OC)c1 (centres undefined),5.0,nt,nt,nt,nt,-0.7,0,-5,-4,nt
CCCCC(=O)Nc1ccc(C(=O)Nc2ccc3c(c2)OCO3)cc1,-3.0,7,14,-6.3,2%,0.4,-11,-13,nt,8.7
COCCN(C(=O)COC(=O)CCOc1ccccc1)c1c(N)n(Cc2ccccc2)c(=O)[nH]c1=O,8.5,9,15,1.5,0%,-0.3,16,4,2,-4.2
COc1cccc(N2CCN(c3ccc4nnc(CCC(=O)N5CCC(C)CC5)n4n3)CC2)c1,5.0,-20,-18,-0.1,2%,0.3,55,4,1,1.5
COc1ccc(NS(=O)(=O)c2ccc(F)c(F)c2F)cc1S(=O)(=O)N1CCOCC1,nt,3,1,-1.3,-14%,0.7,nt,nt,1,-0.3
COc1cc(NC(=O)[C@H]2CSCN2C(=O)[C@@H]2CCC(=O)N2)cc(OC)c1OC,-0.9,7,2,-2.8,nt,0.6,5,-4,-1,-1.5

# Additional compounds
SMILES,RanGTP-Impb inh,Ecoli rRNA inh,Ecoli rRNA inh OD600,Ecoli rRNA inh RFP,Vif TR-FRET,Bfl-1 A1 inh,Calb FLC,T cruzi inh,Beta cell apopt,AF4-AF9 inh
Cc1nc2c(C)cccc2c2c1CCN2c1ccccc1F,2.4,5,2,2.0,-10%,0.1,0,11,-4,-0.4
C/C(CC(=O)Nc1cc(C)ccn1)=N\NC(=O)c1ccc(C(C)(C)C)cc1,-0.8,-6,6,-2.6,-4%,-0.4,4,2,-14,2.4
C=CCSc1cc(C)nc2c(-c3ccc(Cl)cc3)c(C)nn12,1.1,-51,-72,-9.9,-5%,-1.9,?,22,18,-3.0
CCNS(=O)(=O)c1ccc(CCC(=O)Nc2ccc3c(c2)OCCO3)cc1,6.9,-7,-3,-1.8,nt,1.1,-2,6,nt,-1.8

# Screening results deposited in PubChem by several laboratories.
